Source: PubChem
FGF22 binding: binders of recombinant human FGF22 by thermal shift | Q9HCT0 | SYPRO orange fluorescence; percent of sucrose octasulfate shift, DMSO zero | calls only at 9.99 µM | hit rate 1.5% among 340,000 | AID 651658;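 active = melting point raised past a set limit in the mean and every replicate; inconclusive = no clear call; three in four hits are not shown here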
Target sequence (Q9HCT0 whole entry, looked up): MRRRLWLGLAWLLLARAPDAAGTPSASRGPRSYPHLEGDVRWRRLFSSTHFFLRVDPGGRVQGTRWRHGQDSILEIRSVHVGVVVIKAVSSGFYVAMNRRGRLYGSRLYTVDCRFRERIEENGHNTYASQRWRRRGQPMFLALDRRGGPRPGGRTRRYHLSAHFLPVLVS
UCH37 DUB inh: blocks the human deubiquitinase UCH37 | Q9Y5K5 | purified proteasome/UCH37, Ub-AMC cleavage fluorescence | inhibition, % (concentration not given with the values) | hit rate 0.33% among 330,000 | AID 588478;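 active = mean of two replicates above 20%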;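 also: 0% = compound-free wells with enzyme and 100% = wells lacking proteasome; stock transfer was 100 nL into about 20 µL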
Target sequence (Q9Y5K5 whole entry, looked up): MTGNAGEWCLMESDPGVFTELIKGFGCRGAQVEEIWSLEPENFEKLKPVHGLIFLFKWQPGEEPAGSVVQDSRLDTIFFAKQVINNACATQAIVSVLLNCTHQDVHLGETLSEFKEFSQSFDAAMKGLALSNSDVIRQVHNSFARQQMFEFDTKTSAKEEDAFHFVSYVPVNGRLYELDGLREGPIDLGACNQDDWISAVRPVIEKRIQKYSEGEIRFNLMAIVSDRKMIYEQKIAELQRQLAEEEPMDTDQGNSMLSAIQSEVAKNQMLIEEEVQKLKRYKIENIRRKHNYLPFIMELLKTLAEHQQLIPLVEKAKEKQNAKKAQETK
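Material: human UCH37 enzyme supplied as purified proteasome complex. Measure: % inhibition of Ub-AMC cleavage fluorescence. Medium: pH 7.4 Tris-HCl (50 mM) with ovalbumin, ATP-MgCl2, DTT. Times: 30 min preincubation with enzyme, 25 min cleavage at room temperature. Detection: AMC fluorescence intensity at 355/460 nm.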
RanGTP-Impb inh: inhibitors of RanGTP-importin-beta interaction, primary screen, biochemical, FRET, CFP-Ran, YFP-importin-beta, homogeneous; cell-free CFP-Ran/YFP-importin-beta FRET ratio; inhibition, % (test concentration not listed); hit rate 1.1% among 300,000; AID 2216;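 active = most replicates above 15%; inconclusive = exactly half above 15%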;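 also: 0% = DMSO wells and 100% = Ran loaded with GDP instead of GTP; wells of about 40 µL received 100 nL stock; the first replicate is given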
Vif TR-FRET: inhibitors of Vif binding to APOBEC3G peptide, primary screen, biochemical, TR-FRET, GST-Vif 1-94, biotin-A3G peptide, dose response retest (AID 1117319); TR-FRET GST-Vif / biotin-A3G peptide binding; higher % means a stronger effect; test concentration not given here; strong numbers were not always called active; hit rate 0.57% among 260,000; inhibition, %; hits with a dose series show IC50 in µM;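 active = above the screen mean plus three standard deviations and confirmed in dose response; inconclusive = results disagree or hit not tested in dose response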;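 also: Vif residues 1-94 fused to GST binding biotinylated APOBEC3G peptide 110-148; 0% = full assay without inhibitor and 100% = GST in place of GST-Vif; retest series ran down from 100 µM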
E coli growth: inhibitors of Escherichia coli growth. OD600, 23 h; stronger effect = lower value. hit rate 0.21% among 330,000. AID 1053175. OD600 absorbance (no concentration beside the values);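 active = OD600 absorbance below the run mean of sample wells minus 3.6 SD, in any replicate, cut at about 0.56 in these data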;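 also: stock transfer was 300 nL into about 60 µL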
HNF4A DNA FP: change in binding of human HNF4 alpha to DNA | P41235 | HNF4a-FITC DNA binding, fluorescence polarization, 1 h | activity change, % at 10 µM | hit rate 0.3% among 360,000; in the data active = activity change above about 30%, passing the limit was not always enough;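 also: controls were the assay level and a saturating level of protein; the project sought stronger binding though the title names inhibitors; some compounds called inactive have numbers as strong as hits; positive values seem to mean higher polarization but the record does not say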
MLL AF4-AF9 inh: inhibitors of human MLL-AF4/AF9 interaction | hit rate 0.47% among 350,000 | inhibition, % at 10 µM | P42568 | AlphaScreen, biotin-AF4 peptide binding to FLAG-AF9;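 active = every replicate reaching a set inhibition limit, whatever the replicate mean, cut at about 25% in these data; inconclusive = mean inhibition reaches that limit but some replicates miss it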;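 also: 0% = plate neutral control median and 100% = total signal loss; the record names both 10 and 1 µM as test concentration; the first replicate is given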
Target sequence (P42568 whole entry, looked up): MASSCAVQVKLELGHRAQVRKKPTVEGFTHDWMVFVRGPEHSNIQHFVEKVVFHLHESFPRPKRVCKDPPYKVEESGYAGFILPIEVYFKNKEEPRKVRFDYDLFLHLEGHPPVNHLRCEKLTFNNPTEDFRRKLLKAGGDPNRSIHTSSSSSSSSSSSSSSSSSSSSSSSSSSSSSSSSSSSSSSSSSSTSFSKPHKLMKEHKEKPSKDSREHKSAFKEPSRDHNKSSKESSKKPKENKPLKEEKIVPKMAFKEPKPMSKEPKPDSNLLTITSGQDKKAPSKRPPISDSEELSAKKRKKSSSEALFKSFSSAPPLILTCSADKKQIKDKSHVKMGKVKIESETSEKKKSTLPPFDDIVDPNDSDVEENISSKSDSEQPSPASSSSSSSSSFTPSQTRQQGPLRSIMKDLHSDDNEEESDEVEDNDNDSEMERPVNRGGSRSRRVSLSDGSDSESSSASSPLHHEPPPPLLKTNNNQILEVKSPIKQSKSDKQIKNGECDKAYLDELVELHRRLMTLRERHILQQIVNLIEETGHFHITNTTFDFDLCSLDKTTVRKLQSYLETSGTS
* hit, by the source's call; i = inactive; u = inconclusive; x = not tested or not shown. These rows are one share of the data; count on the stated rates, not on these rows.

SMILES	FGF22 binding	UCH37 DUB inh	RanGTP-Impb inh	Vif TR-FRET	E coli growth	HNF4A DNA FP	MLL AF4-AF9 inh
NC(=O)C1(N2CCCCC2)CCN(C2CC(=O)N(Cc3ccc(N4CCCC4=O)cc3)C2=O)CC1 (centres undefined)	x	1.1	6.1	26%	0.7	-0.1	x
COC(=O)c1cn(Cc2cccnc2)c(=O)c2ccccc12	x	0.1	0.5	-5%	0.68	0.4	0.9
Cc1c(C(Nc2ccccn2)c2ccccc2)c(=O)n(-c2ccccc2)n1C (centres undefined)	x	1.3	4.9	23%	0.7	0.9	x
CCOc1cc(Cl)c(S(=O)(=O)NCc2cccnc2)cc1Cl	i	-1.8	4.6	x	0.66	-0.3	3.3
COC(=O)C1=C(CN2CCN(C)CC2)NC(=O)NC1c1cc(C)ccc1C (centres undefined)	x	3.5	-1.7	1%	0.81	0.0	x
O=C(CCn1nc(-c2ccc(F)cc2)ccc1=O)NCc1ccccc1	i	4.8	-0.6	x	0.71	7.4	4.3
C=CCn1c(SCC(=O)NC2CCCC2)nnc1-c1ccncc1	i	3.0	0.2	x	0.7	-5.3	0.6
CCOc1ccc(CNCc2cccnc2)cc1	x	1.1	-4.4	0%	0.68	-5.1	x
CCCc1nnc(NC(=O)COC(=O)c2cc(C)nc3ccccc23)s1	x	3.1	-2.1	-9%	0.71	2.7	-16
COc1cc(CC(=O)Nc2ncc(C)s2)cc(OC)c1OC	x	6.8	-3.1	12%	0.71	-7.4	x
COc1cc(CCC(=O)OCc2nnc(-c3ccccc3)o2)cc(OC)c1OC	x	3.4	9.0	0%	0.74	0.7	x
Cc1ccccc1N1C(N)=NC(N)=NC1(C)C	x	1.9	2.9	-6%	0.79	x	4.0
C[C@]12c3[nH]c4cc(-c5ccco5)ccc4c3CCN1C(=O)[C@@H](CC(=O)NCc1cccc(C(F)(F)F)c1)C[C@@H]2C(=O)N1CCCCC1	i	-12	x	3%	0.72	0.2	5.5
Cc1ccc(OCc2cc(C(=O)N(C)CC3CCOCC3)no2)cc1C	i	2.0	-0.1	-2%	0.72	1.8	-1.8
CCOCCc1c(O)nc(SCCOc2ccc(C)c(C)c2)[nH]c1=O	i	5.1	0.2	6%	0.67	4.5	-1.0
O=C(Cn1nnc(-c2ccccc2NC(=O)c2ccco2)n1)NC1CCCCC1	i	-2.5	-2.0	-9%	0.72	1.0	4.8
COc1cc(C(=O)OCC(C)=O)ccc1OCc1c(C)noc1C	i	-1.5	-1.1	x	0.7	-2.0	-2.8
CCOc1ccc(-c2nnc(NC(=O)Cc3ccc(OC)cc3)o2)cc1	i	2.8	4.8	x	0.68	2.1	-28
COc1ccccc1NC(=O)CCN1C(=O)/C(=C\c2cc(OC)c(OC)c(OC)c2)SC1=S	i	5.7	-0.2	x	0.68	4.0	-2.8
N#Cc1ccc(/C=N/NC(=O)c2cccc(S(=O)(=O)N3CCOCC3)c2)cc1	i	x	32*	x	x	-1.0	-0.2
CCCCOC(=O)c1ccc(NC(=O)CN2C(=O)NC3(CCCCCC3)C2=O)cc1	i	4.4	x	-3%	0.64	1.2	-0.3
CCN(CC)S(=O)(=O)c1ccc(F)c(C(=O)OC2CC(C)OC2=O)c1 (centres undefined)	i	-3.5	0.0	x	0.63	-3.8	1.6
CCc1nnc(NS(=O)(=O)c2ccc(NS(=O)(=O)c3ccccc3)cc2)s1	x	5.3	3.6	2%	0.65	-0.8	-3.7
Cc1ccc(Cn2nnnc2CN2CCC(O)(c3ccccc3F)CC2)cc1	i	2.2	-2.1	20%	0.72	0.5	-8.0
CCc1c(C2(O)CCCCC2)[nH]c2ccc(C#N)cc12	i	0.8	6.5	x	0.67	6.5	1.6
CCCn1c(SCC(=O)N(C)CC(=O)Nc2ccc(Cl)cc2)n[nH]c1=O	i	3.6	x	x	0.7	3.0	-14
CCOC(=O)C(C)Sc1nc(-c2ccccc2)nc2ccc(F)cc12 (centres undefined)	x	-4.7	6.6	5%	0.73	-1.3	x
O=C(CCC(=O)N1CCOc2ccc(Cl)cc21)NCCN1CCOCC1	i	1.2	-2.7	x	0.69	3.2	-2.6
CCCn1c(SCC(=O)N2CCCCC2)nnc1C(C)C	i	1.4	-3.9	-4%	0.68	5.6	-0.1
Fc1c(F)c(F)c(SCn2cc(Br)cn2)c(F)c1F	i	4.0	x	-5%	0.7	2.8	1.1
CCn1c(O)c(N=NC(=O)CNc2ccc(C)cc2)c2ccccc21	i	2.8	-2.7	x	0.68	2.2	-1.0
CC(C)CC1CCCCC1OC(=O)CN1CCCCC1 (centres undefined)	i	5.0	-1.6	0%	0.71	-4.2	-3.1
CC(=O)c1cccc(NC(=O)C2COc3ccccc3O2)c1 (centres undefined)	i	0.1	u	x	0.6	-5.2	-0.4
CC1Cc2ccccc2N1C(=O)CO/N=C/c1ccc(OC(F)F)cc1 (centres undefined)	i	x	3.2	x	x	-3.5	-2.4
CC(C)C(=O)NC(Nc1cccc2cccnc12)C(Cl)(Cl)Cl (centres undefined)	x	1.5	0.7	3%	0.71	0.3	x
O=S(=O)(/C=C/c1ccccc1)NCc1ccccc1Cl	x	-1.8	0.5	3%	0.65	2.9	4.7
O=C(NCCc1ccccc1)c1ccc2c(c1)OCCO2	i	x	4.0	x	x	0.2	-16
COc1cccc(CNC(=O)C2CCN(S(=O)(=O)c3cnc[nH]3)CC2)c1	x	2.8	u	13%	0.72	-1.2	x
Cc1cccc(NC(=O)Cn2nnc(C(=O)NCc3ccco3)c2N)c1	i	2.9	-0.6	-7%	0.72	0.0	1.5
CCN(CC)c1ncnc2c1ncn2[C@H]1CN(Cc2ccccc2)C[C@@H](COC(C)=O)O1	i	x	x	x	x	2.5	3.8

Three entries from above, sorted by molar mass, largest number first.
SMILES	FGF22 binding	UCH37 DUB inh	RanGTP-Impb inh	Vif TR-FRET	E coli growth	HNF4A DNA FP	MLL AF4-AF9 inh
CCN(CC)c1ncnc2c1ncn2[C@H]1CN(Cc2ccccc2)C[C@@H](COC(C)=O)O1	i	x	x	x	x	2.5	3.8
O=C(Cn1nnc(-c2ccccc2NC(=O)c2ccco2)n1)NC1CCCCC1	i	-2.5	-2.0	-9%	0.72	1.0	4.8
Cc1c(C(Nc2ccccn2)c2ccccc2)c(=O)n(-c2ccccc2)n1C (centres undefined)	x	1.3	4.9	23%	0.7	0.9	x

(listing goes on)
SMILES	FGF22 binding	UCH37 DUB inh	RanGTP-Impb inh	Vif TR-FRET	E coli growth	HNF4A DNA FP	MLL AF4-AF9 inh
O=C(COc1ccc(S(=O)(=O)NC2CCCC2)cc1)N1CCCCCC1	x	-0.9	0.8	-8%	0.7	-0.5	x
CCCOc1ccc(N2C(=O)CC(N3CCN(c4ccc([N+](=O)[O-])cc4)CC3)C2=O)cc1 (centres undefined)	i	3.3	2.4	x	0.71	0.3	4.0
CCOc1cc(/C=C2\N=C(C)OC2=O)cc(Br)c1OCC(=O)OC	i	2.9	0.6	3%	0.61	-3.0	7.7
O=C(N/C(=C/c1ccco1)C(=O)N1CCCCCC1)c1cccs1	x	6.1	1.5	24%	0.69	4.3	x
Cc1cccc(NC(=O)C2C(c3ccccc3)C2(Cl)Cl)c1 (centres undefined)	i	1.5	0.1	1%	0.67	-2.2	-4.3
Cn1c(=O)c2c(O)c(Cc3ccccc3)c(=O)[nH]c2n(C)c1=O	i	4.3	0.3	u	0.7	2.0	-0.9
Cc1ccc(C)c(OCc2cc(C(=O)N(C)Cc3nccs3)no2)c1	i	1.8	0.8	x	0.68	-4.2	0.1
CN(c1nc2ccccc2n2c(-c3ccco3)nnc12)S(=O)(=O)c1ccccc1	x	-175	2.5	-9%	0.66	1.2	x
Cc1ccc(CN2C(=O)N/C(=C\c3ccc(N4CCOCC4)cc3)C2=O)cc1	x	-21	0.4	-3%	0.67	7.2	x
Cc1ccc(S(=O)(=O)N(C)C)cc1NC(=O)c1cc(=O)[nH]c2ccccc12	i	1.2	-1.6	1%	0.53	-0.4	-17
CCC(C(=O)NC(C)(C)C)n1c(-c2ccccc2)nc2ccccc21 (centres undefined)	i	x	x	x	x	0.6	-0.3
O=C(CCCN1C(=O)/C(=C\c2cccc(Br)c2)SC1=S)Nc1cccnc1	i	4.9	2.4	x	0.71	1.2	2.6
CN(C)S(=O)(=O)c1cc(NC(=O)CSc2ncc(C(F)(F)F)cc2Cl)ccc1Cl	x	2.8	4.8	10%	0.7	-1.4	x
C#CCOCCOCCOCCNc1nc(N2CCN(C(=O)[C@H]([C@@H](C)CC)n3cc(CCC(=O)O)nn3)CC2)nc(N2CCN(C(=O)[C@H](CCCCN)n3cc(CC(C)O)nn3)CC2)n1 (some centres undefined)	i	x	x	x	x	1.3	2.1
COc1ccc(CC(=O)Nc2ccc(N3CCOCC3)cc2)cc1S(=O)(=O)N1CCOCC1	i	0.8	-2.6	x	0.68	-0.4	-29
CCCCCC(=O)Nc1ccc(S(=O)(=O)Nc2ccc(Cl)nn2)cc1	i	2.7	-2.4	x	0.7	2.4	-3.4
CCCCC(c1nnnn1Cc1ccco1)N1CCN(c2nc3ccccc3s2)CC1 (centres undefined)	x	2.4	u	17%	0.69	-0.7	x
Nc1nnc(SCC(=O)Nc2ccc3c(c2)OCCO3)s1	x	4.9	4.2	12%	0.69	-1.7	x
COc1ccc(N(CC(=O)Nc2nc3ccc(C)cc3s2)S(=O)(=O)c2c(C)nn(C)c2C)cc1	i	0.1	2.4	0%	0.73	-0.1	5.5
CCOc1ccc2[nH]cc(S(=O)(=O)c3ccc(C)cc3)c(=O)c2c1	i	-9.2	1.9	3%	0.69	2.2	-6.4
O=C(CNC(=O)c1ccc(-c2ccccc2)cc1)Nc1ccc(S(=O)(=O)Nc2ncccn2)cc1	i	4.5	u	30%	0.7	-1.2	6.3
O=C(COC(=O)c1cc(Cl)ccc1O)c1ccc2c(c1)OCO2	i	-4.8	1.4	-8%	0.66	2.3	-0.4
CCc1nn(CC(=O)NCCCN(C)C2CCCCC2)c(=O)c2cc3occc3n12	x	1.7	-2.9	x	0.68	-4.6	x
Cc1ccccc1OCC1Cn2c(nc3c2c(=O)n(C)c(=O)n3C)O1 (centres undefined)	i	4.2	4.3	x	0.65	-0.9	-3.4
O=C(c1cc2ccccc2oc1=O)N1CCOCC1	i	1.7	-5.8	6%	0.72	-2.7	0.1
COc1ccc(CNc2ncnc3sccc23)cc1	i	2.0	7.0	x	0.7	2.8	-2.7
CCCCc1cc(=O)oc2c(C)c(OCc3nn[nH]n3)ccc12	i	-72	-4.7	0%	0.72	-3.2	-7.6
Cc1ccc2[nH]cc(CCCN3C(=O)c4ccccc4C3=O)c2c1	i	5.1	2.6	x	0.7	-2.4	0.3
Cc1ccc(S(=O)(=O)N(C)C)cc1NC(=O)C(C)N(C)Cc1sccc1C (centres undefined)	i	1.4	2.6	x	0.69	-1.0	3.9
CCOC(=O)c1c(C)[nH]c(C(=O)COC(=O)CNC(=O)c2ccccc2Cl)c1C	x	2.1	0.4	x	0.6	-3.5	x
O=C(Cn1cc(S(=O)(=O)Cc2ccccc2F)c2ccccc21)N1CCOCC1	i	6.4	-2.0	-1%	0.69	1.9	-0.6
COC(=O)[C@@H]1OC(=O)[C@H]2O[C@@]23[C@@]1(C)CC[C@@H]1[C@@]2(C)C=CC(=O)OC(C)(C)[C@@H]2CC(=O)[C@]13C	i	0.6	x	x	0.82	7.2	-8.3
CCCCC(=O)Nc1ccc(NC(=O)c2ccc3c(c2)OCO3)cc1OC	x	1.2	-5.0	72%	0.64	0.0	x
